# Screens deposited in PubChem BioAssay by Broad Institute.
# Vaccinia inh: blocks a specific stage of Vaccinia orthopoxvirus infection, primary screen, cell-based, single point; Vaccinia-infected cells, mCherry/Venus stage reporter fluorescence; active compounds read low; some inactives read as strong as hits; activity change (mCherry), % (concentration not given with the values); 89,000 compounds, 0.01% hits;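 active means mCherry past -33% and 40 or more points under the early reporter, replicates agreeing; inconclusive means past -33% without that gap or agreement; tested in A549 cells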;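 further: scaled between vehicle wells and reference inhibitor wells; 23 nL library stock went into each well; one replicate is shown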
# Vaccinia inh Venus: also measured in Vaccinia inh; calls as there; activity change (Venus), %; measured here: Venus reporter, other viral stage;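 negative = less Venus signal; first of two replicates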
# The depositor's hits bear a star; ? = inconclusive; . = not tested or not shown; & = joins results of further samples. The list is partial. The share of hits here may be higher or lower than overall.
smiles | Vaccinia inh | Vaccinia inh Venus
CO[C@@H]1CN(C)C(=O)c2cc(NS(=O)(=O)c3ccc(F)cc3)ccc2OC[C@H](C)NC[C@@H]1C | 3.7 | 9.4
C[C@@H]1CN([C@@H](C)CO)S(=O)(=O)c2ccc(-c3cccnc3)cc2O[C@@H]1CN(C)C(=O)CN(C)C | 11.2 | 4.4
C[C@@H]1CN([C@H](C)CO)C(=O)c2cc(NS(C)(=O)=O)ccc2O[C@@H]1CN(C)C(=O)NC1CCCCC1 | 21.2 | 8.5
CCC(=O)N1[C@@H]2c3ccc(-c4ccccc4OC)c(=O)n3C[C@@H]2[C@@H](CO)[C@@H]1C(=O)NCCCN(C)C | -6.5 | 13.0
O=C(C[C@H]1CC[C@@H]2[C@H](COC[C@@H](O)CN2CCc2ccccc2)O1)NCc1ccc(F)cc1 | 4.9 | 4.6
COCC#Cc1cnc2c(c1)C(=O)N([C@@H](C)CO)C[C@@H](C)[C@H](CN(C)C(=O)c1cccnc1)O2 | 6.7 | 8.7
C[C@H](CO)N1C[C@H](C)[C@H](CN(C)S(=O)(=O)c2cccs2)Oc2ccc(NC(=O)Nc3ccccc3)cc2CC1=O | 0.8 | -5.5
C[C@@H]1CN([C@H](C)CO)C(=O)Cc2cc(NS(=O)(=O)c3ccccc3)ccc2O[C@H]1CN(C)CC1CCCCC1 | -20.0 | -5.1
CN1C(=O)c2cc(NC(=O)c3cccs3)ccc2OC[C@H]2O[C@@H](CC(=O)Nc3ccc4c(c3)COC4)CC[C@@H]21 | 0.0 | -5.4
COC(=O)C[C@H]1C=C[C@H](N)[C@H](CO)O1 | 9.1 | 6.2
O=C(c1cccc(F)c1)N1CC2(C1)[C@H](c1ccccc1)[C@@H](CO)N2C(=O)C1CCCC1 | -0.1 | -0.2
COc1ccc(-c2ccc3n(c2=O)C[C@H]2[C@H](CO)[C@@H](C(=O)N(C)C)[C@@H]3N2Cc2ccncc2)cc1 | 3.6 | 3.1
CCCC#Cc1cnc2c(c1)C(=O)N([C@H](C)CO)C[C@H](C)[C@@H](CN(C)C(=O)Nc1ccccc1OC)O2 | 14.5 | 2.2
Cc1ccc(S(=O)(=O)N[C@@H]2C=C[C@H](CC(=O)N3CCc4ccccc4C3)O[C@@H]2CO)cc1 | -29.7 | -8.1
COc1cccc(C(=O)Nc2ccc3c(c2)OC[C@@H](C)N(C(=O)C2CCCC2)C[C@H](C)[C@H](OC)CN(C)C3=O)c1 | -13.4 | -6.7
Cc1ccc(S[C@]2(C(=O)NCc3ccccc3)CC(=O)N(C3CCCCC3)[C@@H]2c2ccc(CO)cc2I)cc1 | -28.3 | -20.3
COc1ccccc1-c1ccc2c(c1)O[C@H](CN(C)C(=O)c1ccccc1)[C@H](C)CN([C@H](C)CO)S2(=O)=O | -6.6 | -15.3
O=S(=O)(c1cc(C(F)(F)F)ccc1Cl)N1CCN(Cc2ccc(OCCO)cc2)CC1 | ? | .
CN(C)CC(=O)N1[C@@H](C#N)[C@H](c2ccc(-c3cccc(C(=O)N(C)C)c3)cc2)[C@@H]1CO | 5.9 | 1.1
N#Cc1ccc(-c2ccc([C@@H]3[C@@H](CO)N4CCCCN(C(=O)Nc5ccc(F)cc5)C[C@H]34)cc2)cc1 | ? | .

# Additional structures follow:
smiles | Vaccinia inh | Vaccinia inh Venus
C[C@@H]1CN([C@H](C)CO)C(=O)c2cc(NS(=O)(=O)c3ccccc3)ccc2O[C@@H]1CN(C)C(=O)Nc1cccc2ccccc12 | 9.4 | 12.1
CCS(=O)(=O)N1CC2(C1)[C@H](c1ccccc1)[C@H](CO)N2C(=O)C1CCCC1 | 6.9 | 8.1
C[C@H]1CN([C@@H](C)CO)C(=O)c2cccc(NC(=O)Nc3ccccc3)c2O[C@H]1CN(C)C(=O)Nc1cccc2ccccc12 | ? | .
C[C@H]1CCCCO[C@H](CN(C)Cc2ccccc2)[C@@H](C)CN([C@@H](C)CO)C(=O)c2cc(NS(=O)(=O)c3ccc(Cl)cc3)ccc2O1 | ? | .
CC(C)C#Cc1ccc([C@@H]2[C@@H](CO)N3C(=O)CN(C(=O)c4ccccn4)C[C@@H]23)cc1 | -0.1 | -0.1
CN(C)c1ccc2c(c1)[C@H]1C[C@@H](CC(=O)NCC3CC3)O[C@@H](CO)[C@H]1O2 | 4.2 | 11.0
CCCN(C)C[C@H]1Oc2cc(C#C[C@@H](C)O)ccc2S(=O)(=O)N([C@@H](C)CO)C[C@H]1C | 0.9 | -5.5
CC(=O)N[C@H]1CC[C@@H](CC(=O)NCC2CCCCC2)O[C@@H]1CO | 3.9 | 19.4
C[C@@H]1CCCCO[C@H](CN(C)Cc2ccncc2)[C@H](C)CN([C@H](C)CO)C(=O)c2cc(NC(=O)Nc3ccc(C(F)(F)F)cc3)ccc2O1 | ? | .
COc1ccc2c3c([nH]c2c1)[C@@H](CO)NCC31CCN(C(=O)C2CCOCC2)CC1 | 19.6 | 8.8
CO[C@@H]1CN(C)C(=O)c2ccc(NC(C)=O)cc2OC[C@H](C)N(Cc2cncnc2)C[C@@H]1C | 24.4 | 18.2
CCCC(=O)Nc1ccc2c(c1)OC[C@@H](C)N(S(=O)(=O)c1cn(C)cn1)C[C@H](C)[C@H](OC)CN(C)C2=O | 5.3 | -1.5
C[C@@H]1CN([C@@H](C)CO)C(=O)CCCn2cc(nn2)CO[C@@H]1CN(C)S(=O)(=O)c1cccc(C#N)c1 | 17.7 | 22.4
C[C@H](CO)N1C[C@H](C)[C@H](CN(C)C(=O)NC2CCCCC2)Oc2cc(-c3cccnc3)ccc2S1(=O)=O | 21.6&14.7 | 3.3&-0.2
O=C(Nc1ccc(F)cc1)N1C[C@H]2[C@@H](c3ccccc31)[C@@H](CO)N2C(=O)c1ccncc1 | 2.2 | 8.3
Cc1noc(C)c1S(=O)(=O)N(C)C[C@H]1Oc2c(NC(=O)c3ccc(-c4nccs4)cc3)cccc2C(=O)N([C@H](C)CO)C[C@H]1C | ? | .
CNC[C@@H]1Oc2c(NC(=O)Nc3ccc(C(F)(F)F)cc3)cccc2C(=O)N([C@H](C)CO)C[C@@H]1C | ? | .
O=C(c1ccccc1F)N1CC2(C1)[C@H](c1ccccc1)[C@H](CO)N2CC1CCOCC1 | -0.1 | 1.2
CN1c2ccc(-c3cccc(C#N)c3)cc2[C@@H]2[C@@H](CCN2C(=O)NC2CCCC2)[C@H]1CO | -22.7 | -8.4
CCCNC(=O)N1CC2(C1)[C@H](c1ccccc1)[C@H](CO)N2Cc1ccc(Cl)cc1 | -7.8 | -5.7

# Compound profiles, from the list above. Order of screens: Vaccinia inh	Vaccinia inh Venus
# `O=C(c1ccccc1F)N1CC2(C1)[C@H](c1ccccc1)[C@H](CO)N2CC1CCOCC1` as listed: -0.1	1.2
# `O=C(Nc1ccc(F)cc1)N1C[C@H]2[C@@H](c3ccccc31)[C@@H](CO)N2C(=O)c1ccncc1` as listed: 2.2	8.3
# `CN(C)CC(=O)N1[C@@H](C#N)[C@H](c2ccc(-c3cccc(C(=O)N(C)C)c3)cc2)[C@@H]1CO` as listed: 5.9	1.1

# Other structures
# Under each structure: Vaccinia inh, Vaccinia inh Venus
> C[C@@H]1CN([C@H](C)CO)C(=O)c2cc(NC(=O)Nc3ccc4c(c3)OCO4)ccc2O[C@@H]1CN(C)C
 : 15.6, 10.7
> COc1ccc(NC(=O)N(C)C[C@@H]2OCCCC[C@H](C)Oc3ccc(NS(C)(=O)=O)cc3C(=O)N([C@@H](C)CO)C[C@H]2C)cc1
 : 5.3, 3.9
> Cc1noc(C)c1NC(=O)N(C)C[C@H]1Oc2ccc(NC(=O)Nc3cccc4ccccc34)cc2C(=O)N([C@H](C)CO)C[C@H]1C
 : 11.0, 7.4
> COc1ccc(OC(=O)N(C)C[C@@H]2OCc3ccccc3-c3ccccc3C(=O)N([C@@H](C)CO)C[C@@H]2C)cc1
 : 21.5, 5.7
> C[C@H](CO)N1C[C@H](C)[C@@H](CN(C)C(=O)Nc2ccc3c(c2)OCO3)OCCCC[C@H](C)Oc2ccc(NC(=O)CCC(F)(F)F)cc2C1=O
 : -5.7, -3.3
> C[C@H](CO)N1C[C@H](C)[C@H](CN(C)C(=O)Cc2cccnc2)Oc2ncc(-c3ccncc3)cc2C1=O
 : 11.2, 16.5
> O=C(Cc1ccccn1)N1CCCCN2[C@H](CO)[C@H](c3ccc(Br)cc3)[C@H]2C1
 : 14.1, 2.7
> C[C@@H]1CN([C@H](C)CO)C(=O)c2c(c3ccccc3n2C)-c2ccccc2CO[C@@H]1CN(C)C(=O)Cc1ccccc1
 : -24.4, -23.2
> CCC(=O)Nc1ccc2c(c1)C(=O)N(C)[C@@H]1CC[C@H](CC(=O)N[C@H](C)c3ccccc3)O[C@H]1CO2
 : -4.9, 3.6
> COc1ccc(S(=O)(=O)Nc2ccc3c(c2)C(=O)N([C@@H](C)CO)C[C@@H](C)[C@H](CN(C)Cc2ccc4c(c2)OCO4)OCCCC[C@H](C)O3)cc1
 : ?, .
> COC(=O)C[C@H]1C[C@@H]2c3cc(NC(=O)Nc4ccc(C(F)(F)F)cc4)ccc3O[C@@H]2[C@@H](CO)O1
 : ?, .
> C/C=C/c1cnc2c(c1)C(=O)N([C@@H](C)CO)C[C@@H](C)[C@H](CN(C)Cc1ccc(F)cc1)O2
 : 2.5, 1.6
> COc1cccc(-c2ccc3c(c2)O[C@@H](CN(C)Cc2cccnc2)[C@@H](C)CN([C@@H](C)CO)S3(=O)=O)c1
 : -9.2, -0.1
> CC(C)NC(=O)Nc1ccc2c(c1)C(=O)N([C@@H](C)CO)C[C@H](C)[C@@H](CN(C)S(=O)(=O)c1ccc(Cl)cc1)OCCCC[C@H](C)O2
 : ?, .
> C[C@@H]1CN([C@@H](C)CO)C(=O)c2cc(NS(=O)(=O)c3cccs3)ccc2O[C@H]1CN(C)Cc1ccncc1
 : 13.4, 2.0
> CCC(=O)Nc1ccc2c(c1)OC[C@H](C)N(C(=O)c1ccccc1F)C[C@@H](C)[C@H](OC)CN(C)C2=O
 : -3.2, -5.5
> O=C(N[C@@H]1CC[C@H](CC(=O)N2CCCCC2)O[C@@H]1CO)c1cccc(F)c1
 : 2.3, 1.5
> C[C@H](CO)N1C[C@H](C)[C@H](CN(C)C(=O)CN2CCOCC2)Oc2ncc(C3=CCCC3)cc2C1=O
 : 21.6, 20.1
> C/C=C/c1ccc(C2[C@@H]3CN(S(=O)(=O)c4ccccc4)C[C@H]2N3)cc1 (stereo not given in full)
 : ?, .
> CN(C)C(=O)C[C@@H]1CC[C@H](NC(=O)C2CCC2)[C@@H](CO)O1
 : 2.2, 7.6
> C[C@@H]1CN([C@@H](C)CO)S(=O)(=O)c2ccc(-c3ccncc3)cc2O[C@@H]1CN(C)C(=O)C1CC1
 : 9.5, 6.3
> C[C@@H]1CN([C@@H](C)CO)C(=O)Cc2cc(NC(=O)C3CC3)ccc2O[C@H]1CN(C)C(=O)NC1CCCCC1
 : 5.7, 6.5
> COc1ccc(NC(=O)N(C)C[C@H]2Oc3ncc(C#CCC(C)C)cc3C(=O)N([C@@H](C)CO)C[C@H]2C)cc1
 : -24.4, -14.7
> C[C@@H]1CN([C@@H](C)CO)C(=O)c2cc(-c3ccc(C#N)cc3)cnc2O[C@H]1CN(C)C(=O)CC1CC1
 : 7.1, -0.2
> C[C@H](NC(=O)C[C@@H]1C[C@@H]2c3cc(NC(=O)NC4CCCCC4)ccc3O[C@@H]2[C@@H](CO)O1)c1ccccc1
 : 3.0, 0.0
> COc1ccc2c3c(n(C)c2c1)[C@H](CO)N(C(=O)Nc1ccc(F)cc1)CC31CN(C(=O)c2ccc3c(c2)OCO3)C1
 : -18.2, -16.7
> CCC(=O)N(C)C[C@@H]1Oc2ncc(/C=C/c3ccccc3)cc2C(=O)N([C@@H](C)CO)C[C@@H]1C
 : 6.9, 1.8
> CNC(=O)C[C@@H]1CC[C@H]2[C@@H](COc3ccc(NC(=O)Nc4ccccc4F)cc3C(=O)N2C)O1
 : 1.1, 2.5
> CCN(C[C@H]1[C@H](c2ccccc2)[C@@H](CO)N1C(C)=O)C(=O)NC(C)C
 : 23.0, 20.4
> C[C@@H]1CN([C@H](C)CO)C(=O)c2cccc(NS(=O)(=O)c3ccc(Cl)cc3)c2O[C@@H]1CN(C)C(=O)Nc1ccc(F)cc1
 : -2.3, -1.2

# New compounds follow.
# Under each structure: Vaccinia inh, Vaccinia inh Venus
> C[C@H]1CN([C@@H](C)CO)C(=O)c2cc(-c3cccc(F)c3)cnc2O[C@H]1CN(C)C(=O)c1ccccn1
 : 1.0, -6.3
> Cc1noc(C)c1S(=O)(=O)Nc1ccc2c(c1)C(=O)N([C@H](C)CO)C[C@@H](C)[C@H](CN(C)C)OCCCC[C@@H](C)O2
 : 23.3, 19.1
> C[C@H](CO)N1C[C@H](C)[C@H](CN(C)Cc2ccc(C(F)(F)F)cc2)Oc2ccc(NS(=O)(=O)c3ccccc3)cc2C1=O
 : -7.0, -6.4
> C[C@@H]1CN([C@H](C)CO)C(=O)c2c(c3ccccc3n2C)-c2ccccc2CO[C@H]1CN(C)S(=O)(=O)c1cccs1
 : -13.0, -13.5
> COC(=O)C[C@@H]1CC[C@@H]2[C@@H](COc3ccc(NC(=O)c4cccc(F)c4)cc3C(=O)N2C)O1
 : -12.2, -8.7
> CO[C@@H]1CN(C)C(=O)c2ccc(NC(=O)C3CC3)cc2OC[C@@H](C)N(C(=O)Cc2ccccn2)C[C@H]1C
 : 9.9, 4.4
> CO[C@@H]1CN(C)C(=O)c2ccc(NC(=O)C3CC3)cc2OC[C@@H](C)N(Cc2cccnc2)C[C@H]1C
 : -3.1, -8.7
> CC(C)NC(=O)N(C)C[C@H]1Oc2ccc(NC(=O)C3CC3)cc2CC(=O)N([C@@H](C)CO)C[C@@H]1C
 : 3.0, 2.6
> CN1CCN(C(=O)C[C@H]2CC[C@@H](NC(=O)Cc3ccccn3)[C@@H](CO)O2)CC1
 : 2.4, -3.6
> COc1ccc(C#Cc2ccc([C@H]3[C@@H](CO)N4C(=O)CN(C(=O)c5cccnc5)C[C@@H]34)cc2)cc1
 : 1.8, 0.7
> O=C(c1ccccc1)N1CC2(C1)[C@@H](c1ccccc1)[C@H](CO)N2CC1CC1
 : -5.1, -9.0
